26S disassembly – blocks ATP-dependent breakdown of the yeast 26S proteasome; anti-FLAG beads, GFP-proteasome disassembly, flow cytometry; inhibition of disassembly, % (concentration not given with the values); 24,000 tested, 0.2% active;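 active = above 40%; inconclusive = likely self-fluorescent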;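 also: plate controls were ATP control with full disassembly for no effect and ATP-gamma-S intact proteasomes for full effect; higher percent means more bead fluorescence retained so stronger block of disassembly; stock transfer was 100 nL into about 10 µL; wells with too few beads may also be inconclusive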
VCAM-1 rise – boosters of cytokine-driven VCAM-1 levels – cell-based, plate reader, pooled HUVEC, TNFa stimulus (AID 455). 10,000 tested, 0.2% active. augmentation, % at 5 µM. HUVEC TNFa-induced VCAM-1 immunofluorescence, plate reader; numbers were filed only for top-ranked candidate wells;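 active = a compound raising TNF-alpha-driven VCAM-1 surface staining, with its hit status upheld on visual or statistical review; inactive = the rest, including hits rejected on review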;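 also: 0% = TNFa with vehicle and 100% = strongest image-checked hit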
* = called active by the depositor; i = inactive; ? = inconclusive; / = no result given. Only part of the results is shown (hit frequency here may not be typical).

| 26S disassembly | VCAM-1 rise | mol |
| --- | --- | --- |
| 0.0 | / | CCOc1ccc(C2CC(c3ccccc3C)n3ncnc3N2)cc1 (stereo not given) |
| 0.9 | / | CCC(=O)Nc1c(C(=O)Nc2cccc(OC)c2)oc2ccccc12 |
| 0.8 | / | COc1cccc(CN2CCCN(S(=O)(=O)c3ccc(Br)cc3)CC2)c1 |
| 6.7 | i | Cc1ccc(-n2c(N)c(C(N)=O)sc2=S)cc1 |
| 1.6 | / | Cc1ccc(-n2ncc3c(=O)n(CC(=O)NCC4CCCO4)cnc32)cc1 (stereo not given) |
| 1.4 | i | CN(Cc1nc(-c2ccncc2)no1)S(=O)(=O)c1ccc(Br)cc1 |
| -2.1 | / | CCOC(=O)N1CCC(N2C(=O)c3cc(C(=O)NC4CCCCC4)ccc3C2O)CC1 (stereo not given) |
| 1.0 | i | COC(=O)C1=C(C)NC(C)=C(C(=O)OC)C1C(=O)OC1CCCCC1=O (stereo not given) |
| -1.8 | i | c1cnn(-c2cc(N3CCOCC3)ncn2)c1 |
| 2.2 | i | S=c1[nH]nc(COc2ccccc2)n1C1CCCCC1 |
| -0.6 | / | Cc1oc(-c2ccc(Cl)cc2)nc1CN1CCCC(C(=O)NCc2ccco2)C1 (stereo not given) |
| 5.9 | / | CC(C)OC(=O)c1nnc(Cc2ccc(Cl)cc2)o1 |
| 1.4 | / | COc1ccc(CCNC(=O)Cn2c(=O)n(Cc3ccco3)c(=O)c3ccc(Cl)cc32)cc1OC |
| -0.4 | / | O=Nc1c2nc3ccccc3n(O)c-2c2ccccc12 |
| 0.9 | i | Cc1ccc(S(=O)(=O)Nc2cc(C(=O)O)ccc2N2CCCCC2)cc1 |
| -1.1 | / | Cc1ccc(S(=O)(=O)Cc2ccc(C(=O)N3CCN(c4ccccn4)CC3)o2)cc1 |
| 0.6 | i | CCOc1ccc(NC(=O)CCN2CCN(c3ccccc3)CC2)cc1 |
| -7.8 | / | Cc1noc(/C=C/N(C)C)c1S(=O)(=O)N1CCCC(C(=O)NCc2ccco2)C1 (stereo not given) |
| -1.5 | / | CC1CCCCN1S(=O)(=O)c1coc(C(N)=O)c1 (stereo not given) |
| -2.9 | i | CC(C)CN(C(=O)c1ccc(=O)n(C)n1)c1nc2ccccc2s1 |
| -1.8 | / | Cc1nccc2[nH]c(=O)c(C(=O)NC3CCN(Cc4ccccc4)CC3)cc12 |
| -0.1 | / | CCOC(=O)N1CCc2c(sc3c2C(=O)NC(c2ccccc2)N3)C1 (stereo not given) |
| 13.8 | / | CCN1CCCC1CNC(=O)c1nn(-c2ccc(C)cc2)c(=O)c2c1c1ccccc1n2C (stereo not given) |
| 1.1 | / | CCOC(=O)C1CCCN(c2c(NCCN(C)Cc3ccccc3)c(=O)c2=O)C1 (stereo not given) |
| -0.3 | / | COc1ccc(N2CCN(C(=O)CCN3C(=O)c4ccccc4S3(=O)=O)CC2)cc1 |
| 1.0 | / | CCOC(=O)C1CCCN(S(=O)(=O)c2cc(Br)cc3c2N(C(=O)C2CC2)CC3)C1 (stereo not given) |
| -0.7 | / | CCC(=O)N1CCc2cc(S(=O)(=O)N3CCN(c4ccccn4)CC3)ccc21 |
| 0.1 | / | COCCCNC(=O)Cn1cc2c(n1)CCCCC2 |
| -0.8 | / | Cc1cc(=O)n2nc(N3CCCC(C(=O)NCCc4ccccc4)C3)sc2n1 (stereo not given) |
| 0.1 | i | Cc1ccc2oc(=O)c3cnn(CC(=O)N4CCCCC4C)c3c2c1 (stereo not given) |
| ? | / | CCOC(=O)C1CCCN(C(=O)c2cc(Nc3ccc(OC)c(OC)c3)nc3ccccc23)C1 (stereo not given) |
| -1.1 | / | CCOCCCNC(=O)C(c1ccc(OC)cc1)N(Cc1ccc2c(c1)OCO2)C(=O)CNC(C)=O (stereo not given) |
| -2.0 | i | OCCNCC(O)Cn1ccc2ccccc21 (stereo not given) |
| -2.7 | / | Cc1cccc(C(CC(=O)N2CCCC2)c2ccccc2)c1O (stereo not given) |
| 1.7 | i | O=C(Sc1nnnn1C1CCCCC1)c1cccs1 |
| 2.1 | / | COc1ccc(C2N(c3cc(Cl)ccc3OC)C(=O)C3CCCN32)c(OC)c1 (stereo not given) |
| -0.3 | i | CCc1nnc(NC(=O)C2CCCN2S(=O)(=O)c2ccc(C)cc2)s1 (stereo not given) |
| -1.7 | / | Cc1cccc(NC(=O)C2c3ccccc3C(=O)N3CCc4ccccc4C23)n1 (stereo not given) |
| -3.0 | / | Cc1cc(=O)c2ccccc2s1 |
| -2.4 | / | O=C1NCC(O)=C1C=NC12CC3CC(CC(C3)C1)C2 |
| -0.1 | / | COC(=O)c1ccc2c(c1)NC(=O)C(N1CCOCC1)S2 (stereo not given) |
| 1.9 | i | Cc1c(NS(=O)(=O)c2ccc3c(c2)c(=O)n(C)c(=O)n3C)c(=O)n(-c2ccccc2)n1C |
| -0.2 | / | CC1CCCN(C(=O)c2ccc3c(c2)C(=O)N(CCC2=CCCCC2)C3=O)C1 (stereo not given) |
| -4.2 | i | CCOC(=O)COc1ccc(S(=O)(=O)Nc2ccc3c(c2)OCO3)cc1 |
| 2.1 | i | O=C(CN1CCN(c2ncc(C(F)(F)F)cc2Cl)CC1)Nc1ccc2c(c1)OCO2 |
| -1.2 | / | CCc1ccc(N/C(SC)=C(/C#N)C(N)=O)cc1 |
| 0.6 | i | CCC(C)(C(=O)NC1CCCCC1)N(Cc1ccco1)C(=O)c1ccc2c(c1)OCO2 (stereo not given) |
| -2.6 | i | CC1CCN(S(=O)(=O)c2ccc3[nH]c(=O)cc(C(=O)O)c3c2)CC1 |
| -1.2 | / | O=C(CSc1ccc2nnc(-c3ccc(F)cc3)n2n1)N1CCCCC1 |
| -0.9 | / | COc1ccc(C2C(C(=O)N3CCCCC3)CCC(=O)N2c2cc(OC)c(OC)c(OC)c2)cc1 (stereo not given) |
| -2.1 | i | CCn1cc(C(=O)NCCCOC)c(=O)c2cc(S(=O)(=O)N(C)C3CCCCC3)ccc21 |
| -4.6 | / | COc1ccc(-c2nc(CS(=O)CC(=O)NCCCN3CCCC3)c(C)o2)cc1OC (stereo not given) |
| 0.1 | / | OCCN(CC(O)Cn1ccc2ccccc21)CC(O)Cn1ccc2ccccc21 (stereo not given) |
| 0.9 | / | COc1cc(-c2nc3cnccn3c2Nc2ccc3c(c2)OCCO3)ccc1O |
| -0.3 | / | COc1ccccc1N1CCN(C(=O)CCCC2=NS(=O)(=O)c3ccccc3N2)CC1 |
| -1.4 | / | CCOC(=O)c1cc(S(=O)(=O)NC2CCN(C(=O)OCC)CC2)cn1C |
| 0.4 | / | CCN(CCN(C)C)C(=O)Cn1ncc2c1-c1cc(C)ccc1OC2 |
| 1.0 | i | Cc1ccc(N2CC(C(=O)Nc3nnc(C)s3)CC2=O)cc1 (stereo not given) |
| -5.3 | / | O=C(O)c1ccccc1NCN1C(=O)C2CC=C(Cl)CC2C1=O (stereo not given) |
| 3.7 | i | COCc1nnc(SCC(=O)NC(C)c2ccccc2)n1-c1ccccc1 (stereo not given) |

Later entries.
| 26S disassembly | VCAM-1 rise | mol |
| --- | --- | --- |
| -0.7 | / | CCC(C)NC(=O)CSc1nc2ccccc2c(=O)n1CCCC(=O)NCC1CCCO1 (stereo not given) |
| 0.1 | i | C=CCNC(=O)c1ccc(Cl)cc1Cl |
| -0.3 | i | O=C(Nc1ccccc1-c1nc2ccccc2o1)c1ccc2c(c1)OCCO2 |
| -1.9 | / | O=C(Cn1c(=O)oc2cc(S(=O)(=O)N3CCCC3)ccc21)N1CCN(c2ccccn2)CC1 |
| -3.8 | / | CC1CCCCN1CCNC(=O)CN1C(=O)COc2ccccc21 (stereo not given) |
| -1.2 | / | O=C1CN(C(=O)c2ccc(Br)o2)C(c2ccc(F)cc2)c2cc(F)ccc2N1 (stereo not given) |
| -0.1 | / | Cc1noc(C(=O)Nc2sc3c(c2C#N)CCC3)c1Cl |
| -3.0 | / | COC(=O)c1ccc(C2C(C(C)=O)=C(C)Nc3ncnn32)cc1 (stereo not given) |
| -0.8 | / | COc1ccc(OC)c(NC(=O)c2ccc(NS(=O)(=O)c3c(C)noc3C)cc2)c1 |
| -2.3 | i | O=C(c1ccncc1)N1CCN(C(=O)c2cccs2)CC1 |
| -1.6 | i | CCCSCCCNC(=O)Cn1cc2c(n1)CCC(C)C2 (stereo not given) |
| 0.8 | i | CCCc1nc(N2CCOCC2)c(C#N)c2c1CCCC2 |
| -1.1 | / | CC(C)Cc1cc(C(=O)Nc2cc(Cl)ccc2Cl)no1 |
| 1.9 | / | CCOCCCn1c(=S)[nH]c2cc(C(=O)NCCN(CC)CC)ccc2c1=O |
| -0.7 | / | COc1ccc(OC)c(NC(=O)C2CCCN(S(=O)(=O)c3cccc4cccnc34)C2)c1 (stereo not given) |
| -1.4 | / | COC(=O)c1cn(NC(=O)CC2CCCCC2)c(=O)c2ccccc12 |
| 0.4 | i | CCOC(=O)c1ccccc1NC(=O)N1CCn2c(C)ccc2C1CC (stereo not given) |
| 0.0 | / | Cc1nc2ccc(S(=O)(=O)NC(C(=O)N3CCCCCC3)C(C)C)cc2s1 (stereo not given) |
| -2.1 | / | CCCC(=O)NCCc1nc2ccccc2n1C |
| 1.0 | i | CN(C)CCCN1c2ccccc2CCc2ccc(Cl)cc21 |
| -0.6 | i | CCOc1cc(-c2nc(-c3ccccc3OC)no2)cc(OCC)c1OCC |
| 30.1 | / | CCN(CC)CCNC(=O)c1nn(-c2ccc(C)cc2)c(=O)c2c1c1ccccc1n2C |
| 3.7 | / | COc1ccc(-c2cn3cccnc3n2)cc1NC(=O)C1CCCC1 |
| 1.4 | i | Cc1ccc2cc(CN(Cc3ccc4c(c3)OCO4)Cc3nnnn3Cc3ccco3)c(=O)[nH]c2c1C |
| 0.5 | / | O=C1CCCCCC1C1(O)C(=O)Nc2ccc(Br)cc21 (stereo not given) |
| -0.5 | / | Cc1ccc(CNC(=O)c2cn(C3CCCCC3)c(=O)c3c2c2ccccc2n3C)o1 |
| -0.3 | / | CCOc1ccc(NC(=O)N(C2CCCCC2)C2CCN(C(C)=O)CC2)cc1 |
| 2.7 | i | CCn1c(=O)cc(OCC(=O)NCCCN2CC(C)CC(C)C2)c2ccccc21 (stereo not given) |
| 0.7 | i | CC(C)OC(=O)C(C)(C)Oc1ccc(C(=O)c2ccc(Cl)cc2)cc1 |
| -5.6 | i | CN/C=C1\C(=O)C(C)(C)Oc2ccc3ccc(=O)oc3c21 |
| 0.8 | i | CCCn1c(=O)c2[nH]c(C3CCCC3)nc2n(CCC)c1=O |
| -0.9 | / | Cc1ccc(C2NC(=O)NC(O)(C(F)(F)F)C2C(=O)c2ccccc2)o1 (stereo not given) |
| 0.7 | i | O=C(c1cccnc1)N1CCc2ccccc21 |
| 0.3 | / | Cc1ccc2c(c1)-c1c(cnn1CC(=O)N1CCCN(Cc3ccccc3F)C1)CO2 |
| 0.9 | / | CCOC(=O)c1cnc2nc[nH]n2c1=O |
| -2.8 | i | O=C(O)c1cccc(S(=O)(=O)N2CCOCC2)c1 |
| 22.3 | / | CCN(CCCNC(=O)c1[nH]c(C)c(C(C)=O)c1C)c1cccc(C)c1 |
| -1.3 | i | Cc1nc2c(=O)oc3ccccc3c2n1-c1ccccc1 |
| -0.5 | / | CC1(C)CC(=O)N(CC(=O)NC2CCCC2)c2ccccc2S1(=O)=O |
| -0.5 | i | CCOC(=O)N1CCC(N(C(=O)Nc2cccc(OC)c2)C(C)CC)CC1 (stereo not given) |
| 0.9 | / | COc1cccc2c1OC1(C)CC2NC(=O)N1c1cccc(C(=O)Nc2ccc3c(c2)OCCO3)c1 (stereo not given) |
| -0.5 | i | CC(=O)NC(CCS(C)(=O)=O)C(=O)Nc1cc(C)on1 (stereo not given) |
| -2.5 | i | COc1ccc(OCC(=O)N2CCN(C(=O)Cc3ccccc3)CC2)cc1 |
| -0.4 | / | Cc1ccc(C(=O)NCC2CCCO2)cc1N1CCCC1=O (stereo not given) |
| 2.3 | i | CCCn1c(N2CCN(CC(=O)Nc3ccc4c(c3)OCCO4)CC2)nc2ccccc21 |
| -1.0 | i | CN1CCN(S(=O)(=O)c2ccc(Sc3nnc(-c4cccs4)n3-c3ccccc3)nc2)CC1 |
| 1.8 | / | O=C(/C=N/O)NCC1CCNCC1 |
| -0.4 | i | Cc1cc(S(=O)(=O)NC2CCCCC2)ccc1OCC(=O)NCc1ccccn1 |
| 9.6 | i | CCOC(=O)C1=C(C)Nc2nnnn2C1c1ccc(OC)c(Br)c1 (stereo not given) |
| ? | i | O=C(O)CSC1CC(=O)N(c2ccc(Cl)c(Cl)c2)C1=O (stereo not given) |
| 2.2 | / | Cc1nc2ccccc2c2oc(C(=O)N3CCc4ccccc4C3)cc12 |
| 1.5 | / | CC1Cc2nc(SCC(=O)Nc3ccc(F)cc3)n(C)c(=O)c2S1 (stereo not given) |
| 0.6 | / | CCOC(=O)c1ccccc1NC(=O)CSc1nnc(Cc2cccn2C)n1-c1ccc(F)cc1 |
| 1.9 | / | Cc1cccc(-c2nc(CSCC(=O)NCCCN3CCOCC3)c(C)o2)c1 |

High-throughput results: PubChem, several laboratories
